Screening data as filed in PubChem.
HIV Env fusion – HIV envelope-mediated fusion inhibition; HeLa-JRFL Env/CEM21 cell fusion, luciferase; AID 651610; hit rate 1.1% among 360,000; inhibition, % at 12.3 µM;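 active = mean replicate inhibition score of at least 50 and every replicate individually at or above 50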;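 also: 0% = plate neutral controls and 100% = maraviroc near 300 nM; one replicate is shown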
Rce1 inh – yeast Ras-converting enzyme inhibition | calls only | hit rate 0.27% among 290,000 | Q03530 | AID 2563 | yeast membranes, quenched prenylated peptide cleavage fluorescence;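 active = fall in fluorescence gain of 50% or more versus controls, with final raw signal at or below 3038400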;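 also: plate controls were neutral control wells for no effect and wells lacking membranes for full effect; tested at 10 µM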
CSC inhib – blocks cancer stem cells; cancer stem cell-like cells viability, luminescence; inhibition, % at 7.5 µM; hit rate 1.1% among 300,000; AID 2717;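 active = mean at 75% or more and at least half the replicates too; tested in HMLE shEcad cells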;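 also: 0% = median of negative and 100% = median of positive control wells; the first replicate is given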
eIF4H inh – inhibitors of RNA binding by human eIF4H | Q15056 | eIF4H fluorescence polarization binding assay | inhibition, % at 35 µM | hit rate 0.94% among 290,000;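 active = 50% or more with normal probe brightness, or confirmed in later tests; about a fifth of its hits are not listed in these tables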;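 also: calls also rest on retests at 20 µM and on dose response follow-up; 0% = protein and probe with vehicle and 100% = probe without protein; strong numbers were not always called active; many hits fall short of the cut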
PABP FP inh – blocks human PABP binding to poly(A) RNA; hit rate 1% among 290,000; AID 2014; fluorescence polarization; P11940; inhibition, % at 35 µM;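 active = 50% or more with normal probe brightness, or confirmed in later tests; about a fifth of its hits are not listed in these tables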;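 also: calls also rest on retests at 20 µM and on dose response follow-up; controls were probe without protein and protein plus probe with vehicle; some compounds called inactive have numbers as strong as hits; many hits fall short of the cut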
Target sequence (P11940 whole entry, looked up): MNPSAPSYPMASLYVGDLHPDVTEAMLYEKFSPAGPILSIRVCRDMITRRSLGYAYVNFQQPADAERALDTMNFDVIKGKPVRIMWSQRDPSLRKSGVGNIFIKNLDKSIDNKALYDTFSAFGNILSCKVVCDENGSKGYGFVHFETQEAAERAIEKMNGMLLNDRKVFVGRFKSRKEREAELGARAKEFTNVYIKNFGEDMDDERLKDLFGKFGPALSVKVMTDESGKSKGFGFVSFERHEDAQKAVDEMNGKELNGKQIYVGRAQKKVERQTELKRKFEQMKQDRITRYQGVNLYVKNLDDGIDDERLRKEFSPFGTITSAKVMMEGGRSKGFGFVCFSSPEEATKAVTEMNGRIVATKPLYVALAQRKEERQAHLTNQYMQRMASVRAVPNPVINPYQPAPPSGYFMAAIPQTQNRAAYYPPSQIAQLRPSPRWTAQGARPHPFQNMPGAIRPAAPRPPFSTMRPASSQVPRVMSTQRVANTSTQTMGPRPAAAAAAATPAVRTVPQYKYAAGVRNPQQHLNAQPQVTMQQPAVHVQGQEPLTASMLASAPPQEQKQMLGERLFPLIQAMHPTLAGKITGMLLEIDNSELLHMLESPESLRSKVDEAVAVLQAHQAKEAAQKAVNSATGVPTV
MT1-MMP act inh – inhibitors of human MT1-MMP activation; P50281; HT1080 RFP-PRO-GFP cells, GFP/RFP ratio fluorescence, overnight; percent of plate control window, DMSO zero; GFP/RFP ratio change, % at 20 µM; hit rate 0.061% among 360,000; AID 651647;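 active = GFP/RFP ratio change of at least 30% with cell ATP level not reduced by more than half and red fluorescence within 50% of control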; also: strong numbers were not always called active
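Test system: HT1080 cells expressing an RFP-PRO-GFP fluorescent reporter construct / Compound dosing: single-point 20 µM compound, 1% DMSO / Schedule: cells overnight before dosing, compound overnight, 37 °C, 5% CO2 / Evaluation: GFP/RFP fluorescence ratio / Control set: DMSO and RFP-L50D-GFP cell wells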
UUG fidelity – modulators of start codon recognition fidelity in yeast; AID 602363; S. cerevisiae UUG-firefly luciferase reporter, luminescence/redox ratio; hit rate 0.13% among 350,000; activity score, % at 18.7 µM;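 active = replicate mean at a twofold rise or more, about +100% in these data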;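 also: firefly luciferase made from a UUG start codon reports start codon fidelity; reporter light over untreated wells divided by growth signal over untreated wells; some hits fall short of that in this replicate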
eIF4H inh retest – second read-out of eIF4H inh, no call of its own (marks repeat the call); inhibition, %; compound at 20 µM; confirmation average;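 mean of two retest wells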
PABP FP inh retest – also measured in PABP FP inh; calls as there; inhibition, %; compound at 20 µM; confirmation repeats;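 mean of two retest wells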
MT1-MMP act inh RFP – further read-out of MT1-MMP act inh, marked with its call; RFP signal change, %; measured here: RFP expression control read;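 0 = vehicle wells; hits needed this value within 50% of zero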
The depositor's hits bear a star; i = inactive; . = not tested or not shown; & = joins results of further samples. Compounds as they come (roughly 2.9% active in at least one column).

SMILES	HIV Env fusion	Rce1 inh	CSC inhib	eIF4H inh	PABP FP inh	MT1-MMP act inh	MT1-MMP act inh RFP	UUG fidelity	others
Cc1ccc(NC(=O)Nc2cc(C)on2)cc1	-16	i	0	4	18	2	2	.
Cc1ccc(N(C(=O)c2ccco2)C(C(=O)NC2CCCC2)c2cccnc2)cc1 (stereo not given)	8	i	.	2	-1	-1	2	-7
COc1ccc2c(C)cc(SCC(=O)NCC3CCCO3)nc2c1 (stereo not given)	-1	.	.	.	.	-6	-3	-5
O=C(Nc1nnc(COc2ccccc2)s1)C1CCN(S(=O)(=O)c2ccc(Cl)cc2)CC1	-16	i	-5	4	-1	4	-2	-8
CC(=O)c1ccc(OC(=O)c2cc3ccccc3oc2=O)cc1	.	i	-15	-13	12	.	.	.
CC(=O)c1cccc(CN2CCCC(N3CCN(c4ccccc4F)CC3)C2)c1 (stereo not given)	4	i	-2	9	4	-7	0	9
COc1cccc(NC(=O)Nc2ccccc2SC)c1	2	i	-5	5	-1	5	-1	.
Cc1cccc(N(CC(=O)Nc2c(C)n(C)n(-c3ccccc3)c2=O)S(C)(=O)=O)c1	-19	.	-14	-9	-3	-2	0	-2
CCCCCCc1nc2ccccc2c(=O)n1NC(=O)c1c(O)c2c(n(CC(C)C)c1=O)CCCC2	73*	i	9	4	-5	-34	-17	-9
CCOC(=O)c1c(-c2ccccc2)c[nH]c1C	-36	.	.	.	.	-1	0	-12
CCOc1ccc(OCC(O)CN2CCc3ccccc3C2)cc1 (stereo not given)	5	i	5	0	6	0	0	11
Brc1ccc2ncnc(NCc3cccnc3)c2c1	43	i	-17	-14	4	.	.	.
CC(=O)Nc1ccc(N2C(=O)CC(c3ccccc3)CC2=O)cc1	-34	i	-14	-5	-10	0	2	-17
Cc1cc(NC(=O)COc2ccccc2C)ccc1NC(=O)c1cccs1	-10	.	-1	7	14	5	0	2
Cc1nn(-c2ccccc2)c(N2CCCC2)c1/C=N/NC(=S)Nc1cc(C(F)(F)F)ccc1Cl	.	i	56	-7	0	-6	-6	-24
CC[C@H](CO)Nc1nc(Nc2cccc(Cl)c2)c2ncn(C(C)C)c2n1	7	i	82*	16	10	-10	-11	-12
CSC1=NCCN1C(=O)c1ccc(S(=O)(=O)N(C)C)cc1	-10	i	2	-4	-7	-2	4	-21
O=C(CSc1ncnc2nc[nH]c12)c1ccc([N+](=O)[O-])cc1	17	i	37	12	7	6	-1	.
CSc1ccc(/C=N/NC(=O)CN2CCN(Cc3ccc(C)cc3)CC2)cc1	25	i	-9	-6	-14	-1	-1	-11
CC(=O)c1sc(NC(=O)CN2C(=O)C3CCCCC3C2=O)nc1-c1ccccc1 (stereo not given)	.	.	-17	.	.	2	1	6
CS(=O)(=O)NCCSCc1ccccc1	.	i	-4	-4	-6	-2	-1	4
CCOC(=O)c1c(NC(=S)N2CCOCC2)sc2c1CCN(C(=O)OCC)C2	7	i	54	-11	2	-8	-13	-44
COC(=O)C1CCN(C(=O)CSc2nc3nc(C)cc(C)n3n2)CC1	5	.	.	.	.	4	5	7
Cc1ccc(S(=O)(=O)N2CCOCC2)cc1NC(=O)COC(=O)COc1ccc(C#N)cc1	-3	.	.	.	.	1	0	0
Cc1ccccc1Cn1c(C)c(C(=O)NCCC#N)sc1=O	-47	.	.	.	.	4	0	-19
Additional compounds.
SMILES	HIV Env fusion	Rce1 inh	CSC inhib	eIF4H inh	PABP FP inh	MT1-MMP act inh	MT1-MMP act inh RFP	UUG fidelity	others
CCOC(=O)CNC(=O)c1ccc(C#CC2(O)CCCCC2)cc1	-2	i	-1	-4	2	4	4	.
C[C@H]1CN([C@@H](C)CO)S(=O)(=O)c2ccc(Br)cc2O[C@H]1CN(C)C(=O)NC1CCCCC1	3	.	.	.	.	-3	-1	12
Cc1c(-n2cc(C(=O)c3cc(F)ccc3O)cc(C#N)c2=O)c(=O)n(-c2ccccc2)n1C	-17	i	5	38	3	-21	4	-8
CN(C(=O)CSc1nnc(N)s1)C1CCCCC1	6	i	10	-9	-4	1	2	9
CN(c1ccccc1)S(=O)(=O)c1ccc(C(=O)Nc2nnc(C3=COCCO3)o2)cc1	10	i	23	8	-1	0	0	-20
Cc1ccc(C(=O)C[n+]2cc(-c3ccccc3)n3c2CCCCC3)cc1	35&32	i	25	-4&-4	-1&6	-15&-5	-27&-8	.
CN(C)c1ccc(C(CNC(=O)Cc2cccc3ccccc23)N(C)C)cc1 (stereo not given)	45	i	16	6	-1	-4	4	-5
COc1ccc2[nH]c(C(=O)NCCN3CCOCC3)cc2c1	-6	i	5	-1	0	-2	-2	0
Cc1ccc(-c2nc3c(c(=O)c4ccccc4n3C)c(=O)n2Cc2ccco2)cc1	3	i	-2	19	13	.	.	4
Oc1ccccc1/C=N/n1c2ccccc2c2ccccc21	.	i	1	-4	-1	-5	0	-14
CCNc1nc(OCC)nc(N2CCC(Cc3ccccc3)CC2)n1	18	i	.	-5	-6	-3	-3	.
CCOC(=O)c1nnn(CC(=O)Nc2cccc(OC)c2)c1C(=O)OCC	-5	i	7	14	-1	2	3	-6
CCOc1ccc(OCCC(=O)OCC(=O)NNC(=O)c2ccccc2)cc1	2	i	-7	.	.	-2	-3	.
CCCOP(=O)(c1ccc(N(C)C)cc1)C(O)c1ccc(Cl)cc1Cl (stereo not given)	22	i	-2	-17	-5	4	1	-1
CCOc1ccccc1NC(=O)C1CCCC1	-3	.	.	.	.	4	5	1
Cn1c(SCC(=O)NC(c2ccccc2)c2ccccc2)nnc1-c1cccs1	.	i	5	5	2	-5	-1	-10
O=C(Nc1cnn(Cc2ccccc2)c1)c1nc2ncccn2n1	.	i	-9	-2	3	3	3	-17
C#CCSC1=C(C#N)C(c2cccs2)C(C(=O)OCC)=C(C)N1 (stereo not given)	-13	i	-7	63*	16*	-4	-4	-10	eIF4H inh retest=101*;PABP FP inh retest=52*
CC(OC(=O)Cc1ccc(Br)cc1)C(=O)NC1CCCCC1C (stereo not given)	7	i	6	-10	-6	-2	1	24
CCc1noc(C)c1C(=O)Nc1nc(-c2ccc(Cl)cc2Cl)cs1	.	i	57	-3	2	-16	-27	.
Cc1ccc2c(c1)c1c3n2CCN=C3CCC1	-41	i	.	59*	76*	-5	-3	-10
CC1(C)CC(NCc2cccc([N+](=O)[O-])c2)CC(C)(C)N1	-8	i	0	81*	61*	-9	-2	-28
COc1ccc(Br)cc1C(=O)N/N=C/c1ccc([N+](=O)[O-])cc1	-45	i	2	-2	-6	-1	-5	.
Cc1ccc(CN=C2Nc3ccccc3CS2)cc1	-437	i	15	-6	-8	2	-4	-35
CCOC(=O)c1c(C)n(C)c2cc([N+](=O)[O-])c(O)c([N+](=O)[O-])c12	-9	i	1	-2	8	13	-1	-8

Fetched one by one from above:
SMILES	HIV Env fusion	Rce1 inh	CSC inhib	eIF4H inh	PABP FP inh	MT1-MMP act inh	MT1-MMP act inh RFP	UUG fidelity	others
Cc1ccc(CN=C2Nc3ccccc3CS2)cc1	-437	i	15	-6	-8	2	-4	-35
Oc1ccccc1/C=N/n1c2ccccc2c2ccccc21	.	i	1	-4	-1	-5	0	-14
CCOC(=O)CNC(=O)c1ccc(C#CC2(O)CCCCC2)cc1	-2	i	-1	-4	2	4	4	.

More results follow:
SMILES	HIV Env fusion	Rce1 inh	CSC inhib	eIF4H inh	PABP FP inh	MT1-MMP act inh	MT1-MMP act inh RFP	UUG fidelity	others
COc1cc(-c2nc(CN(C)Cc3nnc(C)o3)c(C)o2)ccc1F	-24	i	-17	16	2	3	-3	.
CC(C)CCNC(=O)c1ccc(C2SCC(=O)N2Cc2ccco2)cc1 (stereo not given)	11	i	6	-7	0	-1	-6	-2
Cc1cc(C(=O)OC(C)C(=O)Nc2nc(-c3ccccc3)cs2)c(C)o1 (stereo not given)	.	i	33	-5	1	-9	-8	-5
CC(=O)/C(N=Nc1cc2c(cc1[N+](=O)[O-])OCCO2)=C(\C)O	-10	i	-8	6	6	0	-4	.
COc1ccc([N+](=O)[O-])cc1N(CC(=O)NCC1CCCO1)S(C)(=O)=O (stereo not given)	4	i	-20	-3	15	2	5	.
COc1cc(CNc2ccc3[nH]c(=O)[nH]c3c2)ccc1OCc1ccccc1	-14	i	-9	4	-5	3	-12	-14
O=C(NCC1CCN(Cc2ccccc2F)CC1)Nc1cc(F)ccc1F	5	i	-4	-11	-9	0	-1	-11
COc1ccc(C(=O)Nc2ccc(S(=O)(=O)Nc3cnc4ccccc4n3)cc2)cc1	-7	.	-23	-10	8	6	-16	-1
Cc1cc(NS(=O)(=O)c2ccc(NC(=O)C(F)(F)F)cc2)nc(C)n1	9	i	-32	-5	21	5	-1	-21
COc1ccc(-c2nnc(SCC(=O)N(C)C3CCS(=O)(=O)C3)n2C(C)C)cc1 (stereo not given)	39	.	.	.	.	2	3	-22
COc1ccccc1N(CC(=O)NCc1cccnc1)S(C)(=O)=O	.	.	-5	-5	-5	-2	2	-20
CC(C)c1cc(CNC(=O)c2cc(COc3cncc(Cl)c3)on2)on1	11	i	.	1	19	-8	-9	6
CN(Cc1nnc(SCC(=O)NCCc2ccccc2)n1C)S(=O)(=O)c1ccccc1	.	i	-13	0	-5	5	2	-4
COc1ccc(C(=O)Nc2ccccc2C(=O)N2CCCCCC2)cc1	-4	i	-4	5	15	0	2	-38
N#CCCSc1nc(N2CCOCC2)c2c(c1C#N)CCCC2	-18	i	-11	-1	-5	-1	1	16
Cc1ccc(C)c(NC2=NC3(CCCCC3)N=C(N)N2)c1	-45	i	-14	6	5	2	3	-17
COc1ccccc1Oc1ccc2c(c1)C(=O)N(c1cccc(O)c1)C2=O	.	i	.	-1	4	2	-6	-20
Cc1ccc(C(C)C)c(OCc2ccc(C(=O)N/N=C/c3ccc(C(=O)O)cc3)cc2)c1	-1	i	17	54	21	-1	-10	.	eIF4H inh retest=-5;PABP FP inh retest=8
CCOC(=O)c1c(NC(=S)Nc2ccc(F)cc2)sc2c1CCC2	-31	i	6	10	11	-2	-1	-20
O=C(NCCc1ccc(C(F)(F)F)cc1)c1ccc2c(c1)OCO2	5	.	.	.	.	2	-6	-18
NC(=O)/C(=C\c1cccnc1)NC(=O)c1ccccc1	2	i	-6	1	4	-1	3	.
Cc1sc(NC(=O)CN2CCN(c3ccccn3)CC2)c(C#N)c1C	.	i	-19	-1	37	2	3	-9
O=C(CCNC(=O)c1ccc([N+](=O)[O-])cc1)Nc1cc(C(F)(F)F)ccc1N1CCOCC1	2	.	.	.	.	-2	-5	-4
O=C(NN=Cc1ccccc1)NN=Cc1ccccc1	-3	.	.	.	.	-2	2	-25
COc1ccccc1NC(=O)c1ccc2[nH]c(C)c(C)c2c1	-93	i	-4	6	13	2	1	4
Remaining list, next part.
SMILES	HIV Env fusion	Rce1 inh	CSC inhib	eIF4H inh	PABP FP inh	MT1-MMP act inh	MT1-MMP act inh RFP	UUG fidelity	others
O=C(COc1cccnc1[N+](=O)[O-])NCc1cccs1	-9	i	-21	-3	0	-1	2	.
Cc1cc2c(Nc3cccc(O)c3)ncnc2s1	3	i	51	5	11	0	-8	-12
COc1ccc2c3c1O[C@H]1C[C@@H](O)C=C[C@@]31CCN(C)C2	.	i	-9	34	23	-5	2	-22
CCC(Sc1nnc(-c2ccco2)n1C)C(=O)Nc1nnc(C)s1 (stereo not given)	8	i	-3	0	3	0	5	-14
CCN1CCN(c2ccc([N+](=O)[O-])cc2C(=O)c2ccc(Cl)cc2)CC1	.	i	-16	-17	-10	-4	-10	.
O=C(CC1C(=O)NCCN1Cc1c(F)cccc1Cl)NC1CCCC1 (stereo not given)	-2	i	-13	-4	-6	-2	2	4
CC(OC(=O)/C=C/c1ccc(Br)cc1)C(=O)N1CCOCC1 (stereo not given)	.	i	-12	.	.	2	-4	-12
S=c1[nH]nc(C2CCCCC2)n1Cc1ccccc1	11	i	0	-2	-7	3	-5	.
